Assay outcomes as filed in PubChem.
ALOX12 inh: blocks human arachidonate 12S-lipoxygenase; purified 12hLO, xylenol orange hydroperoxide absorbance; hit rate 1.1% among 580,000; Potency, µM (doses to about 108 µM), for inactives: at the highest dose activity change, negative = inhibition, most hits filed as inhibitors; further: on the % scale 0 is the no-effect control and ±100 the full control effect
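Purified human 12hLO (150 nM final) in 25 mM Hepes, 0.01% Triton X-100, pH 7.0 was preincubated 15 min at room temperature with compound. Then 40 uM arachidonic acid was added, 30 min. Hydroperoxide was read by Fe-XO absorbance ratio 573/405 nm.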
ERG-DNA inh: blocks human ERG Ets domain binding to DNA | P11308 | fluorescence polarization, His-ERG Ets domain / labelled DNA | Potency, µM (top dose mostly 76.9 µM), without a hit: at the top dose FP activity, negative = inhibition, usual class: inhibitors | hit rate 0.028% among 370,000; active means well fitted inhibition curve with a large enough effect in the polarisation, with a control signal flat; inconclusive means small, poorly fitted or top-dose-only effect, or effect the other way, or a change in a side signal; inactive means no such curve, though single readings can be large or run the other way; the % refers to the polarisation;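 further: polarization taken with two DNA probes labelled with fluorescein and Texas red; % of control where 0% means no effect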
Target sequence (P11308 whole entry, looked up, the tested form may be a part): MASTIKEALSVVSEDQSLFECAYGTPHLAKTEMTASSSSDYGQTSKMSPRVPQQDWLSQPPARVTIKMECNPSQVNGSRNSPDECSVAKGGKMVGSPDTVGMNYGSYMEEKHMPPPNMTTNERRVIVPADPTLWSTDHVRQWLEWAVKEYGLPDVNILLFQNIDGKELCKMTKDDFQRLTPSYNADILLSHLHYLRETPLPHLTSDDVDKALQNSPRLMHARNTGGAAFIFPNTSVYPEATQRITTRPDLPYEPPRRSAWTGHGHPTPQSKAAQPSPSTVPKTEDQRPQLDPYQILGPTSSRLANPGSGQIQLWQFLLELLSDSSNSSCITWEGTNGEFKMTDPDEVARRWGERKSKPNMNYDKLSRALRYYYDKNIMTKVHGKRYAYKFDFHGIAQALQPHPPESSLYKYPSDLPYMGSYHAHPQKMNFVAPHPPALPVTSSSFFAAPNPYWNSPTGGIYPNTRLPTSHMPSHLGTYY
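His-tagged ERG Ets domain (1 uM in the protein solution; 300mM KCl, 50mM Tris-HCl, 1mM EDTA, 1mM DTT, pH 7.5) received compound, then a probe mix of 5 nM fluorescein-DNA and 100nM Texas-615-DNA. Fluorescence polarization was read for both dyes.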
RGS4 inhibitor: blocks human RGS4-accelerated GTP hydrolysis; P49798; Transcreener GDP fluorescence polarization, RGS4-accelerated GTP hydrolysis; Potency, µM (highest dose often 114 µM), inactives show top-dose activity change, negative = inhibition, actives largely listed as inhibitors; hit rate 0.039% among 390,000; further: on the % scale 0 is the no-effect control and ±100 the full control effect; nearly all actives have a fitted effect of over 75% in size; some results filed as inactive show a strong effect at the top dose
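MLSMR compounds (23 nl, pin-transferred) preincubated 10 min at room temperature with a 500nM (2x) first reagent, then RGS4 at 900nM (2x) plus Transcreener GDP mix added; fluorescence polarization (620/688 nm) read before and after 90 min at 30 °C.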
GLS inhibitor: blocks human kidney-isoform glutaminase activity; O94925; Potency, µM (highest dose often 45.5 µM), for the others: top-dose activity change, negative = inhibition, actives largely listed as inhibitors; hit rate 0.21% among 410,000; GLS enzymatic activity, qHTS titration; further: on the % scale 0 is the no-effect control and ±100 the full control effect
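Assay buffer: 45 mM KH2PO4 pH 8.2, 0.02% Tween-20. hKGA acts on L-glutamine (1 mM solution added); product glutamate is reported by an oxidase/peroxidase Amplex Red coupling, with fluorescence taken at baseline and 30 min.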
Pin1 inhibitor: blocks the human prolyl isomerase Pin1; Pin1 FP peptide displacement, HiFluor488, 10 min; hit rate 0.009% among 390,000; Q13526; Potency, µM (highest dose often 115 µM), inactives show at the top dose activity, negative = inhibition, most hits filed as inhibitors; active means well fitted inhibition curve with a large enough effect in the polarisation, with a control signal flat, not every such curve was filed as active; inconclusive means small, poorly fitted or top-dose-only effect, or effect the other way, or a change in a side signal; inactive means no such curve, though single readings can be large or run the other way; the % refers to the polarisation; further: on the % scale 0 is the no-effect control and ±100 the full control effect
rTrxR1 inhibitor: rat TrxR1 inhibition; AID 588453; recombinant rTrxR1, NADPH fluorescence consumption, selenite substrate; O89049; hit rate 1% among 390,000; Potency, µM (top dose mostly 114 µM), without a hit: top-dose activity change, negative = inhibition, most hits filed as inhibitors; further: on the % scale 0 is the no-effect control and ±100 the full control effect; nearly all actives have a fitted effect of over 65% in size
Target sequence (O89049 whole entry, looked up): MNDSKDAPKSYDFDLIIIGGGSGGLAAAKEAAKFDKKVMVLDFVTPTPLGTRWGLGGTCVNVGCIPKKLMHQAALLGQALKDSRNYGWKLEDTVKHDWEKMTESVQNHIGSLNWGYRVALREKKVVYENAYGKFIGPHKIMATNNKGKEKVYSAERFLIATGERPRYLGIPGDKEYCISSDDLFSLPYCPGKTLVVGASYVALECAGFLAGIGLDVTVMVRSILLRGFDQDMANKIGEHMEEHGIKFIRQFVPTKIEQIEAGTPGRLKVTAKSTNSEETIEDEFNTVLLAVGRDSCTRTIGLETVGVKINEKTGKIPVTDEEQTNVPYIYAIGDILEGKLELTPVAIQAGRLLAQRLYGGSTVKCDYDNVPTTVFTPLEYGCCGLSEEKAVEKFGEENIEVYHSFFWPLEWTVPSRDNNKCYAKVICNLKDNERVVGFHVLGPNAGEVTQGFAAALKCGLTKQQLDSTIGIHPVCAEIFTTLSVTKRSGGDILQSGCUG
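Rat TrxR1 (90 nM in the dispensed reagent) was pre-reduced with 400 uM NADPH for 5 min at room temperature, then incubated with compound for 15 min. After 400 uM selenite was added, NADPH fluorescence (Ex 340/Em 450 nm) was followed for 8 min.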
Tb PGK inh: T. brucei PGK inhibition; hit rate 0.043% among 380,000; AID 602233; PGK/GAPDH coupled, Kinase-Glo luminescence, 60 min; P07378; Potency, µM (series often up to 57.5 µM), inactives show top-dose activity change, negative = inhibition, most hits filed as inhibitors; further: on the % scale 0 is the no-effect control and ±100 the full control effect; nearly all actives have a fitted effect of over 60% in size
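Recombinant glycosomal PGK reaction used 1,3-bisphosphoglycerate generated in-well by GAPDH (100nM final) in 100mM TEA pH 7.6, 5mM MgCl2, 0.01% Tween-20. After 60 minutes at room temperature, ATP was read by Kinase-Glo Plus luminescence end-point.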
* hit, by the source's call; i = inactive; ? = inconclusive; · = no result given; & = joins results of further samples; [ ] = dose if it differs, or a comment. Unless noted, the call rests on the fitted dose curve; in most records, active means well fitted curve in the direction sought with a large enough effect; inconclusive means small, poorly fitted or top-dose-only effect, or another doubt; inactive means no such curve, though single readings can be large; an effect the other way counts as inactive or inconclusive. Potency means the concentration at half of the fitted maximal effect. An excerpt; count on the stated rates, not on these rows.

Every second line gives: ALOX12 inh | ERG-DNA inh | RGS4 inhibitor | GLS inhibitor | Pin1 inhibitor | rTrxR1 inhibitor | Tb PGK inh
Cc1ccc(NC(=O)N2C(=O)C3(OCCO3)c3ccccc32)cc1
→ 0% | -1% | -10% | 6% | 6% | 18%[57.1 µM] | 1%
C=CCc1cc(Cl)ccc1OCCN(C)C
→ ? | -4% | 33% | 5% | 3% | 12% | -1%
C=CCn1c(CCNC(=O)c2ccccc2F)nnc1SCC(=O)Nc1ccc(OC)cc1
→ 0% | -8% | 3% | -2% | 7% | 24%[57.1 µM] | 3%
CC(C)Oc1cccc(C(=O)Nc2ccc(-c3nc4cc(Cl)cc(Cl)c4o3)cc2)c1
→ ? | -6% | 18% | 0% | -5% | 23% | i
CCCCNc1nc(-c2ccccc2)c(C(=O)OCC)cc1C#N
→ 4% | 6% | -19% | 2% | 5% | 26% | i
COc1ccc(N2C(=O)CC(Sc3ncn[nH]3)C2=O)c(OC)c1 (stereo unspecified)
→ -2% | -2% | -21% | 31%[activator] | 8% | 0.5µM* | 0%
CCN(CC)C(=O)CSc1nc2cc(OC)c(OC)cc2c(=O)n1Cc1ccc(Cl)cc1
→ -24% | -8% | -26% | · | ? | -8% | -3%
COC(=O)c1ccc(CSc2n[nH]c(C)n2)o1
→ -11% | 9% | -3% | -1% | 10% | 16% | 6%
COc1ccc(CCNC(=O)CSc2nc3[nH]ncc3c(=O)n2-c2ccc(C)c(Cl)c2)cc1OC
→ 9% | 3% | -8% | -7% | 0% | 0% | i
FC(F)Oc1ccc(/C=N/n2c(Cc3ccc(Br)cc3)n[nH]c2=S)cc1
→ ? | -7% | ? | ? | 1% | -14% | 14%
O=C(c1ccccc1F)N1CCC(N2CCCCCC2)CC1
→ 0% | 8% | -20% | 1% | -2% | -12% | i
O=C(CSc1ccc2nnc(-c3ccccn3)n2n1)N1CCN(c2ccccc2)CC1
→ -2% | 9% | -16% | 4% | -1% | -12% | -10%
CCN(c1ccc(NC(=O)COC(=O)CCc2nc3ccccc3n2-c2ccccc2)cc1)C(C)C
→ -27% | -9% | -8% | 0% | 10% | 20%[57.1 µM] | -5%
CN/C(=C\[N+](=O)[O-])NCCSCc1ccc(CN(C)C)o1
→ ? | 12% | 1%[56.9 µM] | 0%&-1% | -16% | ? | -2%
O=C(CN1CCC(Cc2ccccc2)CC1)Nc1ccc2c(c1)OCCO2
→ ? | -7% | 0% | -1% | -3% | 2% | -10%
Brc1ccc(-c2ccc(CNCc3ccccn3)o2)cc1
→ 4% | 13% | -12% | 4% | -4% | -8% | i
COc1ccc(CN2CCSCC2)c(C)c1C
→ -15% | -1% | 2% | 5% | 1% | 17%[57.1 µM] | 2%
C/C(CC(=O)C(F)(F)F)=N\NC(=O)/C(C#N)=C/N(C)C
→ 7% | -12% | 24% | 1% | 3% | 23% | 0%
Cc1cc(NC(=O)CSc2ccc3nnc(-c4ccccn4)n3n2)no1
→ -20% | 1% | 9% | 0% | 0% | 39%[activator] | i
CCOC(=O)c1cc(C#N)c(Oc2cccc(C(F)(F)F)c2)nc1-c1ccccc1
→ ? | 2% | -19%[11.4 µM] | ? | 1% | 21%[57.1 µM] | i
N#CC1=C(N)Oc2n[nH]c(-c3cccs3)c2C1c1ccoc1 (stereo unspecified)
→ 0% | 1% | 5%[11.4 µM] | -6% | -1% | -8%[57.1 µM] | -4%
CC(=O)Nc1cccc(-c2csc(NCc3ccco3)n2)c1
→ ? | -4% | -34% | -1% | 7% | 11%[57.1 µM] | 6%
COC(=O)c1ccc(CSC(=N)N)o1
→ 0% | 16% | 27% | -3% | -4% | 13%[57.1 µM] | -5%
CC(C)n1cnc2c(NCc3ccccc3)cc(Cc3ccc(F)cc3)cc21
→ -5% | -1% | -17% | 18% | 6% | 14% | i
Cc1cccc(NC(=O)Cn2cnc(S(=O)(=O)N3CCCC3)c2)c1C
→ -3%&-5% | 16%&1% | 31%[11.4 µM] | 6%&3% | -9%&1% | 10% | -1%&-2%
CCc1ccccc1NC(=O)Nc1cc(F)ccc1F
→ -15% | -1% | 10% | 1% | -2% | 26% | ·
COc1ccc(OC)c(CNCc2ccc3c(c2)OCO3)c1
→ -13% | 5% | -4%[56.9 µM] | 7% | 0% | ? | 1%
COc1cccc(C2C(C(=O)Nc3cccnc3)=C(C)Nc3nnnn32)c1OC (stereo unspecified)
→ -6% | -12% | 11% | 20% | -7% | 13% | 3%
CCOC(=O)c1c(NC(=O)C(C)NCc2ccco2)sc2c1CCC(C)C2 (stereo unspecified)
→ ? | 0% | -6% | 18% | ? | -9% | 6%
CC(C)C(C)(C#N)NC(=O)CSc1nnc(C(F)(F)F)n1C (stereo unspecified)
→ 0% | 9% | -34% | 2% | 10% | 4% | -5%

Every second line gives: ALOX12 inh | ERG-DNA inh | RGS4 inhibitor | GLS inhibitor | Pin1 inhibitor | rTrxR1 inhibitor | Tb PGK inh
COc1cccc(-c2sc3ccc(OC)cc3c2C#CCC(C)O)c1 (stereo unspecified)
→ ? | -5% | 0% | -4% | -4% | 17% | 0%
O=C(Oc1cccc2cccnc12)c1cccs1
→ ? | 1% | 4% | -3% | -11% | -11% | 3%
Nc1ccc2nc(SCc3ccc([N+](=O)[O-])cc3)sc2c1
→ -10% | 0% | -29% | 7% | -7% | -15% | i
Cc1nc2[nH]c(=S)[nH]c(=O)c2nc1C
→ ? | -9% | -22% | 15% | -18% | -41% | -7%
O=C(C1CCCN(Cc2ccccc2Cl)C1)N1CCCCC1 (stereo unspecified)
→ ? | 4% | -17% | 1% | -12% | 7% | 0%
COc1ccccc1CN1C(=O)C(=O)c2cccc(C)c21
→ 6% | 1% | -10% | -5% | 0% | 9% | -8%
O=C(CN1CCN(c2cccc(C(F)(F)F)c2)CC1)Nc1cccc(C(F)(F)F)c1
→ ? | -2% | 3% | 0% | -6% | 0% | -5%
C=CCOc1c(Br)cc(CNc2ccc(NC(=O)CCC)cc2)cc1OCC
→ -2% | -10% | -9% | 20% | -3% | -11% | 0%
COc1ccc(C2CC(=O)N3CN(c4ccccc4F)CSC3=C2C#N)cc1OC (stereo unspecified)
→ ? | 4% | ? | 8% | -1% | ? | -4%
COc1ccc(-c2nn(-c3ccccc3)cc2/C=N/Nc2ccccn2)cc1OC
→ -32% | -24% | -44% | 3% | 10% | -11% | -11%
O=c1nc(N/N=C/c2ccco2)cn[nH]1
→ -13% | -11% | 8% | -5% | -2% | -14%[57.1 µM] | -18%
CCCCOc1ccc(CSc2ncn[nH]2)cc1
→ 20% | 0% | -15% | 0% | -9% | -9% | -5%
CCc1ccc(NC(=O)CSc2ccc(-c3ccccn3)nn2)cc1
→ 75%&-1%[activator] | 1%&2% | 28%&12% | 8%&2% | -2%&-1% | 11%&-19% | 6%
O=C1C2CCCCC2C(=O)N1c1ccc(NC2CCCCC2)c([N+](=O)[O-])c1 (stereo unspecified)
→ -12% | -11% | -14% | 3% | 41% | -3% | i
O=C(Nc1ccc2c(c1)CCC2)c1cccc(F)c1
→ 3% | -1% | -16% | -15% | 0% | -16% | -20%
CC1CCN(C(C)C(=O)Nc2ccccc2-c2ccccc2)CC1 (stereo unspecified)
→ -18% | 5% | -14% | 1% | -5% | 32%[57.1 µM] | -11%
COc1ccc(-c2nnc(SC)o2)c(OC)c1
→ -1% | -5% | -17% | -10% | -2% | 20% | -1%
CN1/C(=C/C=N/NC(=O)c2ccc([N+](=O)[O-])cc2)C(C)(C)c2ccccc21
→ -15% | -1% | -9% | 1% | -4% | -12% | -9%
COc1cc(CNCc2ccccc2C(F)(F)F)cc(OC)c1
→ -33% | -2% | 6% | 5% | ? | 27% | 2%
COc1ccc(C(=O)c2sc(Nc3ccccc3)c(C(=O)Nc3ccc(OC)c(OC)c3)c2N)cc1
→ ? | -1% | -28% | 18% | -2% | -14% | -8%
CCC/C=N/Nc1nnc(Cc2ccc(OC)c(OC)c2)c(=O)[nH]1
→ 19% | 11% | 8% | 16% | -13% | 21% | -3%
FC(F)(F)c1cccc(CNC2c3ccccc3-c3ccccc32)c1
→ ? | -5% | -4% | 10% | -4% | -4% | -3%
CCCS(=O)(=O)c1c(S(=O)(=O)CCC)c2c(C)cccn2c1C(=O)N/N=C/c1cc(O)cc(O)c1
→ -18% | 3% | 13% | 10% | ? | -8% | 7%
c1ccc(Nc2cccc3c(Nc4ccccc4)cccc23)cc1
→ -8% | 8% | -16% | 15% | 0% | 25% | 0%
Cc1cc(NC(=O)CSc2nc3c(cc2C#N)CCCC3)no1
→ -2% | -3% | -7% | -2% | -6% | 17%[57.1 µM] | i
CCOC(=O)[C@@H](C)NS(=O)(=O)N(Cc1ccccc1)[C@H](C(=O)OC)C(C)C
→ -3% | -6% | -15% | 1% | 2% | -11%[57.1 µM] | 4%
Clc1cccc(CN2CCCCCCC2)c1Cl
→ ? | -1% | -20% | -2% | 2% | -13% | -8%
C=CCn1c(C)nnc1SCC(=O)Nc1ccccc1C(=O)NC1CC1
→ 1% | 4% | -15% | 2% | -3% | -1% | -6%
Cc1ccc(OCC(=O)O/N=C(\N)c2ccccn2)cc1
→ 5% | 1% | -5% | -3% | -9% | 10% | -9%
NC(=O)c1ccc(S(=O)(=O)N2CCSCC2)cc1
→ -6% | -3% | 15% | 1% | -5% | 31% | 2%

Every second line gives: ALOX12 inh | ERG-DNA inh | RGS4 inhibitor | GLS inhibitor | Pin1 inhibitor | rTrxR1 inhibitor | Tb PGK inh
CS(=O)(=O)N(CC(=O)N1CCCCCC1)c1cc(Cl)ccc1Cl
→ -6% | -9% | -28% | -3% | -3% | 31% | -1%
COc1cc(NC(=O)CN(C)S(=O)(=O)c2cccs2)cc(OC)c1
→ 9% | 2% | 20% | -1% | -3% | 28% | -8%
CC1CCN(c2oc(-c3ccc(F)cc3)nc2C#N)CC1
→ 20%&7% | -1% | 4% | 6% | 1% | 12%[57.1 µM] | 3%
CSc1ccc(CN(C)CC(=O)Nc2c(F)cccc2F)cc1
→ -20% | -2% | 3% | 0% | ? | 6%[57.1 µM] | -2%
O=C(C1CCCN(Cc2ccncc2)C1)N1CCc2ccccc2C1 (stereo unspecified)
→ · | -3% | 35% | 1% | 6% | 7%[57.1 µM] | 4%

rTrxR1 inhibitor, entries above that show a hit
Every second line gives: ALOX12 inh | ERG-DNA inh | RGS4 inhibitor | GLS inhibitor | Pin1 inhibitor | rTrxR1 inhibitor | Tb PGK inh
COc1ccc(N2C(=O)CC(Sc3ncn[nH]3)C2=O)c(OC)c1 (stereo unspecified)
→ -2% | -2% | -21% | 31%[activator] | 8% | 0.5µM* | 0%
